NPYLR7 agonist – agonists of mosquito NPYLR7 receptor, primary screen, cell-based, Aedes aegypti, calcium fluorescence, mosquito biting behavior. HEK293T NPYLR7/Galpha15, GCaMP6s calcium fluorescence. 270,000 tested, 0.15% active. AID 1259423, 2018. activation, % at 10 µM; in the data active = activation above about 40%;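 also: 0% = vehicle and 100% = reference agonist at the receptor; some compounds past the cut are filed as inactive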
NPYLR7 agonist max-min – recorded beside NPYLR7 agonist, whose call it bears; activation, %; measured here: Max-Min RFU normalised activation; some inactives read as strong as hits;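 span of the calcium signal over five minutes; 0% = vehicle and 100% = native peptide agonist; compound fluorescence can raise it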
* marks the source's active call; other numbers are inactive results; & = joins results of further samples. An excerpt, so the mix of outcomes need not match the whole.

`CCCNC(=O)CN1CCN(c2nc3c(Cl)c(C)nn3c3ccccc23)CC1` gave NPYLR7 agonist 7 and NPYLR7 agonist max-min 2.
`Cc1ccc(CN(Cc2ccc(F)cc2)CC(O)COCc2ccco2)s1` (centres undefined) gave NPYLR7 agonist 3 and NPYLR7 agonist max-min 17.
Screening CN1CCN(n2c3c(c(SCC(=O)Nc4cccc([N+](=O)[O-])c4)nc2=O)CCC3)CC1 returned NPYLR7 agonist -6 and NPYLR7 agonist max-min -9.
For Cc1ccn2cc(CNS(=O)(=O)/C=C/c3ccc(Cl)cc3)nc2c1 the results were NPYLR7 agonist 20 and NPYLR7 agonist max-min 9.
Screening COc1ccccc1CN(Cc1ccco1)CC(O)COCc1ccco1 (centres undefined) returned NPYLR7 agonist 12 and NPYLR7 agonist max-min 10.
`COc1csc(C(=O)N2CCN(c3cccc(C)n3)CC2C)c1` (centres undefined) gave NPYLR7 agonist 7 and NPYLR7 agonist max-min 6.
Screening CC(=O)Nc1ccc(Cl)c(C(=O)NCCOc2ccccc2)c1 returned NPYLR7 agonist -3 and NPYLR7 agonist max-min -6.
For CC1(C)CC(=O)C=C(Nc2nn[nH]n2)C1 the results were NPYLR7 agonist -1 and NPYLR7 agonist max-min -11.
COCC(=O)NCC1CN(c2ccccc2)C(=O)O1 (centres undefined) was read as NPYLR7 agonist 3 and NPYLR7 agonist max-min 6.
Screening Cc1ccc(C)c(NS(=O)(=O)c2c(C)noc2C)c1 returned NPYLR7 agonist 13 and NPYLR7 agonist max-min 6.
For N#Cc1ccc[nH]c1=S the results were NPYLR7 agonist 0 and NPYLR7 agonist max-min -4.
CC(C)N(C)c1onc(-c2ccccc2)c1CN(CCN1CCOCC1)CC(O)Cc1ccccc1 (centres undefined) was read as NPYLR7 agonist 14 and NPYLR7 agonist max-min 15.
`Cc1ccc(NC(=O)CSc2nc(=O)n(CCCN3CCOCC3)c3c2CCCC3)cc1F` gave NPYLR7 agonist -4 and NPYLR7 agonist max-min -3.
CC(=O)NCCC1CN(Cc2cc(Cl)cc(Cl)c2)CCO1 (centres undefined) was read as NPYLR7 agonist 1 and NPYLR7 agonist max-min -3.
CCSCCN(C(=O)CC1=CCNCC1)C1CCCCC1 was read as NPYLR7 agonist 8 and NPYLR7 agonist max-min 6.
CN1CCN(S(=O)(=O)c2ccc(NCc3cccc(C(F)(F)F)c3)c([N+](=O)[O-])c2)CC1 was read as NPYLR7 agonist 1 and NPYLR7 agonist max-min -7.
For CC(Cn1ccc2ccccc21)NC(=O)c1cn(Cc2cccc(Cl)c2)nn1 (centres undefined) the results were NPYLR7 agonist 6 and NPYLR7 agonist max-min 0.
For CN(C)C12CC3CC(CC1(OC(=O)c1ccccc1)C3)C2 the results were NPYLR7 agonist 5 and NPYLR7 agonist max-min -1.
Screening CNc1snc(C)c1C(=O)N1CCN(Cc2cccs2)CC1 returned NPYLR7 agonist 6 and NPYLR7 agonist max-min 4.
CC(C)c1cc(=O)[nH]c(-n2nc(-c3cccs3)cc2NC(=O)c2ccc(F)cc2)n1 was read as NPYLR7 agonist 7 and NPYLR7 agonist max-min 2.
For O=C(O)c1cccc(-c2ccccc2)c1O the results were NPYLR7 agonist 0 and NPYLR7 agonist max-min -3.
Screening O=C(O)CCN(CCCN1CCOCC1)c1nc(-c2cccc(Br)c2)nc2ccccc12 returned NPYLR7 agonist 0 and NPYLR7 agonist max-min 10.
c1ccc(-n2nnnc2N2CCc3nnc(C4CCCO4)n3CC2)cc1 (centres undefined) was read as NPYLR7 agonist 18 and NPYLR7 agonist max-min 5.
CN(Cc1nc(Cc2ccccc2Cl)no1)C1CCCCC1 was read as NPYLR7 agonist 1&-4 and NPYLR7 agonist max-min -2&-5.
For COc1cc(C=C2SC(=O)N(CCNC(=O)CC(C)C)C2=O)cc(OC)c1OC the results were NPYLR7 agonist 0 and NPYLR7 agonist max-min 7.
Cc1cccc(NC(=O)Nc2ccc(N3CCc4ccccc4C3)c(C(=O)NC3CC3)c2)c1C was read as NPYLR7 agonist 22 and NPYLR7 agonist max-min 28.
`CC(C)C(C(=O)O)N1C(=O)c2c(Cl)c(Cl)c(Cl)c(Cl)c2C1=O` (centres undefined) gave NPYLR7 agonist -2 and NPYLR7 agonist max-min -5.
Screening CC(=O)N1CCC(N(CC2CCN(C3CCCC3)CC2)CC2CCCO2)CC1 (centres undefined) returned NPYLR7 agonist -2 and NPYLR7 agonist max-min -5.
`COc1ccc(NC(=O)CCC2CCN(C(=O)C(OC)c3ccccc3)CC2)c(OC)c1` (centres undefined) gave NPYLR7 agonist 7 and NPYLR7 agonist max-min 3.
For CCOC(=O)N1CCN(C(=O)CSc2ncnc3c2nnn3Cc2ccccc2)CC1 the results were NPYLR7 agonist 0 and NPYLR7 agonist max-min 33.
For Cc1nc(C(F)(F)F)ccc1C(=O)N1CCC1(C)C(=O)NS(=O)(=O)c1cccc(Cl)c1 (centres undefined) the results were NPYLR7 agonist -3 and NPYLR7 agonist max-min -5.
For O=C(NCCOc1cc(N2CCCC2)ncn1)c1ccccc1C(F)(F)F the results were NPYLR7 agonist -1 and NPYLR7 agonist max-min -3.
Screening CC(C)CN(C(=S)NCCc1ccccc1)C1CCS(=O)(=O)C1 (centres undefined) returned NPYLR7 agonist 5 and NPYLR7 agonist max-min 3.
For CCN1C(=O)NC(c2ccc(C)cc2C)C2=C1CN(C(CC(C)C)C(=O)NCc1ccc(F)cc1)C2=O (centres undefined) the results were NPYLR7 agonist 0 and NPYLR7 agonist max-min 4.
For CSC1(CNC(=O)NCc2cc3ccccc3[nH]2)CCOCC1 the results were NPYLR7 agonist 10 and NPYLR7 agonist max-min 7.
Cc1ccc(CNC(=O)Cn2cnc3c(nnn3C)c2=O)cc1 was read as NPYLR7 agonist 1 and NPYLR7 agonist max-min 13.
Screening CCOC(=O)c1cnc(-c2ccc(C(F)(F)F)cc2)nc1N(C)CCc1ccccc1 returned NPYLR7 agonist -3 and NPYLR7 agonist max-min -12.
For Cn1cc(CNC(c2ccccc2F)C2CCCC2)cn1 (centres undefined) the results were NPYLR7 agonist 14&13 and NPYLR7 agonist max-min 11&6.
`C[C@@]1(O)CCN(CCn2c(=O)oc3ccccc32)C[C@@H]1Cc1ccccc1` gave NPYLR7 agonist 13 and NPYLR7 agonist max-min -3.
For Cc1ccc(NC(=O)C(C)N2CCCC(C(F)(F)F)C2)cc1 (centres undefined) the results were NPYLR7 agonist 3 and NPYLR7 agonist max-min 2.
For CCn1ncc(C(=O)NC2CC(C)(C)Oc3cc(OC)ccc32)c1C (centres undefined) the results were NPYLR7 agonist 0 and NPYLR7 agonist max-min -7.
For CN(C)C(=O)c1cccc(NS(=O)(=O)c2ccc(Cl)s2)n1 the results were NPYLR7 agonist -17 and NPYLR7 agonist max-min -18.
Screening CC(NC(=O)c1ccc(N(C)C)nc1)c1ccc(F)cc1 (centres undefined) returned NPYLR7 agonist -13 and NPYLR7 agonist max-min -16.
Screening CCc1nc2n(n1)C(=O)C(C(c1ccco1)N1CCC(C)CC1)S2 (centres undefined) returned NPYLR7 agonist -2 and NPYLR7 agonist max-min 16.
Screening Nc1nc2cc(C(F)(F)F)ccc2n1Cc1ccco1 returned NPYLR7 agonist 5 and NPYLR7 agonist max-min 8.
CCCNC(=O)NCC1CCCN(Cc2ccco2)C1 (centres undefined) was read as NPYLR7 agonist 1 and NPYLR7 agonist max-min 0.
For O=C(NCC(c1cccnc1)N1CCOCC1)c1n[nH]c2c1CCCC2 (centres undefined) the results were NPYLR7 agonist 0 and NPYLR7 agonist max-min 0.
`CCCN1C(=O)C(c2c(CC)[nH]n(-c3ccc(Cl)cc3)c2=O)=C([n+]2cc(C)cc(C)c2)C1=O` gave NPYLR7 agonist -5 and NPYLR7 agonist max-min 1.
For Cc1ccc2c(c1)c1c3n2CCNC3CCC1 (centres undefined) the results were NPYLR7 agonist 8 and NPYLR7 agonist max-min -2.
Screening CCn1c2ccccc2c2n[nH]c(=S)nc21 returned NPYLR7 agonist -3 and NPYLR7 agonist max-min -2.
COc1cc(OC)cc(C(=O)Nc2nnc(-c3ccc(Br)s3)o2)c1 was read as NPYLR7 agonist -7 and NPYLR7 agonist max-min -8.
COc1ccccc1N1CCN(N=Cc2ccc(Cl)c([N+](=O)[O-])c2)CC1 was read as NPYLR7 agonist -4 and NPYLR7 agonist max-min -8.
For COc1ccccc1OCc1cc(C(=O)NCCF)n[nH]1 the results were NPYLR7 agonist 2 and NPYLR7 agonist max-min 1.
COc1cc(CC(=O)N2CCOC(COCc3c(Cl)cccc3Cl)C2)cc(OC)c1 (centres undefined) was read as NPYLR7 agonist 23 and NPYLR7 agonist max-min 23.
Cc1cc(NS(=O)(=O)c2ccc(Br)s2)no1 was read as NPYLR7 agonist 6 and NPYLR7 agonist max-min 3.
CCOC(=O)c1c(-c2ccc(C)cc2)csc1N=Cc1nc(-c2ccccc2)oc1O was read as NPYLR7 agonist 3 and NPYLR7 agonist max-min 11.
For CSC(N)=Nc1ccccc1 the results were NPYLR7 agonist 0 and NPYLR7 agonist max-min -4.
Cc1ccnc(CC(C)N(C)C(=O)c2cnn3c2CCCC3)c1 (centres undefined) was read as NPYLR7 agonist -4 and NPYLR7 agonist max-min -4.
For Cc1cnc(C)c(N2CCN(Cc3nc(-c4ccccc4)no3)CC2)n1 the results were NPYLR7 agonist 4 and NPYLR7 agonist max-min 1.
Screening O=C(CN1CCCCC1=O)Nc1ncc(Cl)s1 returned NPYLR7 agonist -1 and NPYLR7 agonist max-min -1.
`NC(=O)c1nc(-c2cccc(F)c2)nc2c1[nH]c(=O)n2-c1ccc2c(c1)OCO2` gave NPYLR7 agonist -7 and NPYLR7 agonist max-min -7.
Screening CCOc1ccc(Br)cc1S(=O)(=O)N1CCN=C1C returned NPYLR7 agonist -2 and NPYLR7 agonist max-min 7.
CSc1nnc2c(n1)OC(/C=C/c1ccco1)Nc1ccc(Br)cc1-2 (centres undefined) was read as NPYLR7 agonist -1 and NPYLR7 agonist max-min -3.
COCC(O)CN(Cc1ccccc1)Cc1c(-c2ccccc2)noc1N1CCCCC1 (centres undefined) was read as NPYLR7 agonist 10 and NPYLR7 agonist max-min 13.
C=CCSc1nnc(C(C)NC(=O)OC(C)(C)C)o1 (centres undefined) was read as NPYLR7 agonist 3 and NPYLR7 agonist max-min 0.
Screening O=C(/C=C/c1ccccc1)N1CCC(Cc2ccc(-c3ccccc3)cc2)CC1 returned NPYLR7 agonist 1 and NPYLR7 agonist max-min 10.
OC(COc1cccc(Br)c1)CSc1nnc2n1CCCCC2 (centres undefined) was read as NPYLR7 agonist -7 and NPYLR7 agonist max-min 586.
`Cc1nn(-c2ccccc2)c(Cl)c1C(=O)Nc1ccccc1I` gave NPYLR7 agonist -5 and NPYLR7 agonist max-min -8.
Screening Cn1c(C(F)(F)F)ccc(NC(=O)c2ccc(Oc3ccccc3)cc2)c1=O returned NPYLR7 agonist 4 and NPYLR7 agonist max-min 4.
For CCCCNC(=O)C1CN(S(=O)(=O)c2ccccc2)CC1c1cccc(F)c1 (centres undefined) the results were NPYLR7 agonist 3 and NPYLR7 agonist max-min 1.
`CCc1oc(C(=O)N2CC=CC2CC)cc1CN1CCCC1` (centres undefined) gave NPYLR7 agonist -6 and NPYLR7 agonist max-min -9.
CCCc1cn(C2CCN(C(=O)CC3CCCCCC3)CC2)nn1 was read as NPYLR7 agonist 6 and NPYLR7 agonist max-min 5.
Screening COc1cccc(C(CN2CCN(C(=O)c3cc(C)nn3C)CC2)OCc2cccc(Cl)c2)c1 (centres undefined) returned NPYLR7 agonist 0 and NPYLR7 agonist max-min -11.
`COC(=O)c1ccc(S(=O)(=O)Nc2ccc(OC3CCCC3)cc2)cc1` gave NPYLR7 agonist -1 and NPYLR7 agonist max-min -2.
For CCCCCn1nc(C(=O)NNC(=O)CCCC)c2ccccc2c1=O the results were NPYLR7 agonist 16 and NPYLR7 agonist max-min 16.

Sorted by molar mass (descending): part of the list above.
`Cc1nn(-c2ccccc2)c(Cl)c1C(=O)Nc1ccccc1I` gave NPYLR7 agonist -5 and NPYLR7 agonist max-min -8.
COCC(O)CN(Cc1ccccc1)Cc1c(-c2ccccc2)noc1N1CCCCC1 (centres undefined) was read as NPYLR7 agonist 10 and NPYLR7 agonist max-min 13.
CSc1nnc2c(n1)OC(/C=C/c1ccco1)Nc1ccc(Br)cc1-2 (centres undefined) was read as NPYLR7 agonist -1 and NPYLR7 agonist max-min -3.
OC(COc1cccc(Br)c1)CSc1nnc2n1CCCCC2 (centres undefined) was read as NPYLR7 agonist -7 and NPYLR7 agonist max-min 586.
`NC(=O)c1nc(-c2cccc(F)c2)nc2c1[nH]c(=O)n2-c1ccc2c(c1)OCO2` gave NPYLR7 agonist -7 and NPYLR7 agonist max-min -7.
Screening Cn1c(C(F)(F)F)ccc(NC(=O)c2ccc(Oc3ccccc3)cc2)c1=O returned NPYLR7 agonist 4 and NPYLR7 agonist max-min 4.
Screening O=C(/C=C/c1ccccc1)N1CCC(Cc2ccc(-c3ccccc3)cc2)CC1 returned NPYLR7 agonist 1 and NPYLR7 agonist max-min 10.
`COC(=O)c1ccc(S(=O)(=O)Nc2ccc(OC3CCCC3)cc2)cc1` gave NPYLR7 agonist -1 and NPYLR7 agonist max-min -2.
For CCCCCn1nc(C(=O)NNC(=O)CCCC)c2ccccc2c1=O the results were NPYLR7 agonist 16 and NPYLR7 agonist max-min 16.
For Cc1cnc(C)c(N2CCN(Cc3nc(-c4ccccc4)no3)CC2)n1 the results were NPYLR7 agonist 4 and NPYLR7 agonist max-min 1.
Screening CCOc1ccc(Br)cc1S(=O)(=O)N1CCN=C1C returned NPYLR7 agonist -2 and NPYLR7 agonist max-min 7.
CCCc1cn(C2CCN(C(=O)CC3CCCCCC3)CC2)nn1 was read as NPYLR7 agonist 6 and NPYLR7 agonist max-min 5.
`CCc1oc(C(=O)N2CC=CC2CC)cc1CN1CCCC1` (centres undefined) gave NPYLR7 agonist -6 and NPYLR7 agonist max-min -9.
Screening O=C(CN1CCCCC1=O)Nc1ncc(Cl)s1 returned NPYLR7 agonist -1 and NPYLR7 agonist max-min -1.

Screening data from PubChem.
